Compound activity: PubChem, Sanford-Burnham Center for Chemical Genomics
SENP1 inh = inhibitors of human SENP1 SUMO protease catalytic domain; Q9P0U3; recombinant SENP1 catalytic domain, CyPet-SUMO1-YPet FRET cleavage; inhibition, % at 10 µM; 360,000 tested, 0.21% active;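 active = inhibition at least 30% at 10 µM, raw YFP signal under a set limit, fluorescence ratio 0.5 to 1.5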;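 also: 0% = enzyme with DMSO and 100% = no enzyme wells; some results filed as inactive read as strong as hits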
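System: Recombinant human SENP1 catalytic domain, His6-tagged | Incubation: Enzyme reaction for 50 min at room temperature, dark | Medium: Tris pH 8 with BME, BSA, NP40 and catalase | Also added: 25 nM SUMO1 FRET substrate | Compound: 10 µM single point, 0.5% DMSO | Measured by: FRET fluorescence in CFP and YFP emission channels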
SENP8 block-1 = blocks the human protease SENP8. purified SENP8, Z-RLRGG-aminoluciferin cleavage, luminescence. inhibition, % at 10 µM. 330,000 tested, 1.2% active. AID 2540; in the data active = inhibition above about 50%
Target sequence (Q96LD8 whole entry, looked up): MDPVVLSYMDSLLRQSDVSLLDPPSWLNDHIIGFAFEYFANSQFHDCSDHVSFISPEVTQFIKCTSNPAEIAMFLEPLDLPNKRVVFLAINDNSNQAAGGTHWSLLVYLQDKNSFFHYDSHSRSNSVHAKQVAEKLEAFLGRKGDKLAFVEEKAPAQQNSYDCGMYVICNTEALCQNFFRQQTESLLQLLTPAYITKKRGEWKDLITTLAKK
SENP6 inh = inhibitors of human SENP6 protease; Q9GZR1; Recombinant SENP6 catalytic domain, aminoluciferin luminescence; inhibition, % at 10 µM; 330,000 tested, 1.8% active;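 active = inhibition above about 50% at the single tested dose, limit read from the data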;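 also: plate controls were DMSO wells with enzyme for no effect and DMSO wells lacking enzyme for full effect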
Target sequence (Q9GZR1 628-1112 limits assumed): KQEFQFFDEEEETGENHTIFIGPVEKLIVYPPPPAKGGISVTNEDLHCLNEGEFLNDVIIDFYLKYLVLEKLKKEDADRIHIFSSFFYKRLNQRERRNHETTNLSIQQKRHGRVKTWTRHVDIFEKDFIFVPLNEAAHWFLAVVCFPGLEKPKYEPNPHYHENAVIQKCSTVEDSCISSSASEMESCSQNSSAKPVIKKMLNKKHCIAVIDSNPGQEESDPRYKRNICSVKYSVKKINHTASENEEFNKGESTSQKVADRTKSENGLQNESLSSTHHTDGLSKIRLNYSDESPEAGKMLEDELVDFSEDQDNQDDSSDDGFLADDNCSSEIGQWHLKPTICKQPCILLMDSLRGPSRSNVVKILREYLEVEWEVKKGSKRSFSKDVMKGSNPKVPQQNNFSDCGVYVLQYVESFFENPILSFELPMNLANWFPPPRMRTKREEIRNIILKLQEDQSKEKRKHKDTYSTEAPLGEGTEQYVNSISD
SENP8 block-2 = blocks human SENP8 cleavage of Nedd8 substrate; recombinant SENP8, Nedd8 substrate fluorescence; Q96LD8; 360,000 tested, 0.64% active; inhibition, % at 20 µM; AID 602440; in the data active = inhibition mostly above about 40%, no sharp cut-off; inactive = mostly below about 27%
HKDC1 inhibitor = inhibitors of human hexokinase HKDC1 | Q2TB90 | recombinant HKDC1, G6PDH/diaphorase resazurin coupled fluorescence | inhibition, % at 20 µM | 340,000 tested, 0.16% active | AID 493160;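 active = inhibition above about 35% when tested at 20 µM, limit read from the data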;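 also: plate controls were DMSO wells with enzyme for no effect and DMSO wells lacking enzyme for full effect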
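Assay system: recombinant HKDC1 hexokinase; detection: coupled resazurin fluorescence, excitation 525 nm, emission 613 nm; benchmarks: DMSO-plus-enzyme-mix negative control, buffer-substituted positive control; compound dosing: single 20 µM dose; schedule: 90 min at room temperature in dark; also added: glucose plus 1 mM ATP as hexokinase substrates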
SENP7 inh = inhibitors of human SENP7 protease. inhibition, % at 5 µM. 330,000 tested, 1.5% active. recombinant SENP7, Z-RLRGG-aminoluciferin luminescence, 40 min. Q9BQF6;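 active = inhibition above about 50% at the single test dose, limit read from the data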;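 also: plate controls were DMSO with enzyme for no effect and no enzyme buffer wells for full effect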
Target sequence (Q9BQF6 706-1050 limits assumed): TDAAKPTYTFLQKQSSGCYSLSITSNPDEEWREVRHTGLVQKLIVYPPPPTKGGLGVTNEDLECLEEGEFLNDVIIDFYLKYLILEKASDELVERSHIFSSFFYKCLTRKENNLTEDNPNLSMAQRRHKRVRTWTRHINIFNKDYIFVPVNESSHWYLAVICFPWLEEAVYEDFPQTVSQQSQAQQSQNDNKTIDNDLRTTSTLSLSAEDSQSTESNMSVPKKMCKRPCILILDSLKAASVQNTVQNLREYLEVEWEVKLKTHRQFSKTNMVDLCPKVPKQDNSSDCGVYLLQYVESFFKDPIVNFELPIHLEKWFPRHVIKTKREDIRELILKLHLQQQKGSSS
PfGluPho inh = PfG6PD (Plasmodium falciparum) enzyme inhibition | PfGluPho enzyme, NADPH resazurin-diaphorase fluorescence | inhibition, % at 20 µM | 350,000 tested, 0.78% active | AID 504690;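 active = inhibition reaching at least a set limit at 20 µM in the primary screen, cut at about 59% in these data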;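 also: 0% = DMSO wells with substrate and 100% = DMSO wells lacking glucose-6-phosphate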
* marks the source's active call; other numbers are inactive results; i = inactive; · = not tested or not shown. The list is partial; count on the stated rates, not on these rows.

Letters – A = SENP1 inh; B = SENP8 block-1; C = SENP6 inh; D = SENP8 block-2; E = HKDC1 inhibitor; F = SENP7 inh; G = PfGluPho inh
COc1ccc(C2C=C(c3ccc(Br)cc3)Nc3nc(N4C(=O)CCC4=O)nn32)cc1 (centres undefined)
  A: -18	B: 3	C: -9	D: -249	E: -1	F: -7	G: -18
N#Cc1cc2c(=O)n3ccccc3nc2n(CCCN2CCOCC2)c1=O
  A: -25	B: 9	C: 1	D: -290	E: 1	F: -1	G: 5
O=C(CN1C(=O)c2cccc3cccc1c23)NCc1cccnc1
  A: -17	B: -3	C: -14	D: -235	E: -5	F: -9	G: 5
CCOc1ccc(C2C=C(c3ccc(C)cc3)Nc3ncnn32)cc1 (centres undefined)
  A: ·	B: 3	C: 4	D: ·	E: ·	F: -2	G: ·
COCCn1c(N)c(C(=O)NCc2cccs2)c2nc3ccccc3nc21
  A: -28	B: 87*	C: 84*	D: -280	E: 6	F: 64*	G: 18
c1ccc(Nc2cccc3ccccc23)cc1
  A: -14	B: 4	C: 1	D: -168	E: 11	F: 0	G: 37
CCCCc1ccc(C2C(C#N)=C(N)SC(N)=C2C#N)s1
  A: ·	B: -6	C: 6	D: ·	E: ·	F: -2	G: ·
COC(=O)C1=CN(C)C=C(C(=O)OC)C1c1ccc(O)c(OC)c1
  A: -54	B: 7	C: -9	D: -293	E: 3	F: 6	G: 9
C=CCNS(=O)(=O)c1cccc2cc(C(=O)O)c(O)cc12
  A: -19	B: 6	C: -13	D: -284	E: -2	F: 2	G: -20
Cc1cc(C)c2nc(N3CCCN(C(=O)c4ccco4)CC3)c(C#N)cc2c1
  A: -30	B: -1	C: -6	D: -209	E: 9	F: 0	G: 36
COc1cccc(-c2cc3nc(-c4ccccc4)cc(N4CCC5(CC4)OCCO5)n3n2)c1
  A: -38	B: -7	C: -19	D: -272	E: 18	F: -1	G: 5
Cc1ccc(-c2cn3nc(C)c(C)nc3n2)cc1
  A: -19	B: 53*	C: 16	D: -292	E: -3	F: 8	G: 14
COc1ccc(-n2c(O)c(/C=N/n3cnnc3)c3ccccc3c2=O)cc1
  A: -28	B: 1	C: 28	D: -417	E: -1	F: 4	G: -22
Cc1ccc(S(=O)(=O)c2cc3c(=O)n4ccccc4nc3n(Cc3ccco3)c2=N)cc1
  A: -31	B: -4	C: -3	D: -308	E: 13	F: 3	G: 10
CCN(CC)C(=O)C1CCCN(C(=O)Nc2ccc3nsnc3c2)C1 (centres undefined)
  A: 16	B: 2	C: 1	D: -420	E: 2	F: 4	G: 19
N#Cc1c(N)nc(SC2CCCCC2=O)c(C#N)c1-c1ccco1 (centres undefined)
  A: -20	B: -3	C: 0	D: -314	E: 5	F: -1	G: 12
CCOC(=O)/C=c1\s/c(=C\c2ccc3c(c2)OCCO3)c(=O)n1CC(=O)NCC1CCCO1 (centres undefined)
  A: -63	B: -1	C: -1	D: -248	E: -3	F: -14	G: 2
COc1ccccc1C1C=C(c2ccc(C)cc2)Nc2nnnn21 (centres undefined)
  A: -23	B: 6	C: 6	D: -290	E: -1	F: 4	G: 8
Cc1nc(C)c(-c2csc(Nc3cccnc3)n2)s1
  A: -1	B: -12	C: -2	D: -3	E: -6	F: -7	G: 12
Cn1c(=O)c2c(nc(CN3CCN(c4ccc(F)cc4)CC3)n2CCN2CCOCC2)n(C)c1=O
  A: -2	B: 7	C: -11	D: 3	E: -2	F: 1	G: -4
O=C(OCc1ccccc1)c1ccccc1O
  A: ·	B: 22	C: 15	D: ·	E: -4	F: 40	G: -3
Cc1cccc2cc(C#N)c(NCCCn3ccnc3)nc12
  A: -72	B: 6	C: -5	D: -292	E: -2	F: 6	G: 21
COc1cccc(-c2cn3nc(C)c(C)nc3n2)c1
  A: -25	B: 60*	C: 83*	D: i	E: -2	F: -3	G: 25
CC(=O)Oc1c(C)c(C)c2c(c1C)CC[C@@](C)(CCC[C@H](C)CCC[C@H](C)CCCC(C)C)O2
  A: -1	B: 7	C: 0	D: -2	E: -7	F: 15	G: -9
CC(=O)Oc1ccc2c(C)c(CC(C)O)c(=O)oc2c1 (centres undefined)
  A: -139	B: 5	C: -10	D: -284	E: -1	F: -3	G: 33

Reprinted at random: 6 records from the list.
Letters – A = SENP1 inh; B = SENP8 block-1; C = SENP6 inh; D = SENP8 block-2; E = HKDC1 inhibitor; F = SENP7 inh; G = PfGluPho inh
CC(=O)Oc1c(C)c(C)c2c(c1C)CC[C@@](C)(CCC[C@H](C)CCC[C@H](C)CCCC(C)C)O2
  A: -1	B: 7	C: 0	D: -2	E: -7	F: 15	G: -9
Cc1nc(C)c(-c2csc(Nc3cccnc3)n2)s1
  A: -1	B: -12	C: -2	D: -3	E: -6	F: -7	G: 12
COc1ccccc1C1C=C(c2ccc(C)cc2)Nc2nnnn21 (centres undefined)
  A: -23	B: 6	C: 6	D: -290	E: -1	F: 4	G: 8
CCOc1ccc(C2C=C(c3ccc(C)cc3)Nc3ncnn32)cc1 (centres undefined)
  A: ·	B: 3	C: 4	D: ·	E: ·	F: -2	G: ·
Cc1ccc(-c2cn3nc(C)c(C)nc3n2)cc1
  A: -19	B: 53*	C: 16	D: -292	E: -3	F: 8	G: 14
COc1cccc(-c2cn3nc(C)c(C)nc3n2)c1
  A: -25	B: 60*	C: 83*	D: i	E: -2	F: -3	G: 25

The results go on:
Letters – A = SENP1 inh; B = SENP8 block-1; C = SENP6 inh; D = SENP8 block-2; E = HKDC1 inhibitor; F = SENP7 inh; G = PfGluPho inh
COc1ccc2nc(NCCCNC(=O)c3cc(OC)c(OC)c(OC)c3)c(C#N)cc2c1
  A: -25	B: -3	C: 22	D: -298	E: 2	F: 8	G: -11
N#CC1=C2C=CC=CN2CC1=O
  A: -26	B: 1	C: -11	D: -118	E: -5	F: -9	G: -19
CC1(C)CC(=O)c2cc(OCC(=O)NCC3CCCO3)ccc2O1 (centres undefined)
  A: -10	B: -5	C: 4	D: -295	E: -7	F: -4	G: 8
CCc1c(C)c2cc(Cl)c(O)c(CN(C)C)c2oc1=O
  A: -68	B: -4	C: -12	D: -337	E: -7	F: 0	G: 7
N#Cc1c2c(c(NCCCN3CCOCC3)n3c1nc1ccccc13)CCC2
  A: -24	B: 0	C: -7	D: -339	E: 16	F: 8	G: 24
COc1ccc2nc3c(cc2c1)c(NC(=O)c1cccs1)nn3CC(C)C
  A: -22	B: 7	C: 4	D: i	E: 14	F: -1	G: 32
CCn1c(=N)c(C(=O)NCCCOC)cc2c(=O)n3cccc(C)c3nc21
  A: -21	B: 3	C: 4	D: i	E: -1	F: -3	G: -15
COC(=O)C1=CN(CCCN2CCCC2=O)C=C(C(=O)OC)C1c1cccs1
  A: -27	B: 0	C: -4	D: -272	E: -7	F: 7	G: -14
COCCn1c(=N)c(C(=O)NCc2ccco2)cc2c(=O)n3ccccc3nc21
  A: -19	B: -4	C: 10	D: i	E: 4	F: -3	G: 17
CC1CCN(CCCNC(=O)c2coc3nc4ccccc4nc23)CC1
  A: -65	B: 64*	C: 86*	D: -422	E: 9	F: 41	G: 9
Cc1cc(NCCCCO)n2c(nc3ccccc32)c1C#N
  A: -80	B: -17	C: -47	D: -350	E: 17	F: -7	G: 5
COC(=O)C1=C(C)NC2=C(C(=O)CCC2)C1c1cccc(C)n1 (centres undefined)
  A: -152	B: 5	C: 2	D: -281	E: 8	F: 7	G: -7
COc1ccc(-n2c(N)c(C(=O)NCc3ccco3)c3nc4ccccc4nc32)c(OC)c1
  A: -48	B: 9	C: 32	D: -402	E: 7	F: 9	G: 19
Cc1onc(-c2ccccc2)c1C(=O)Nc1cccc2nsnc12
  A: -50	B: 1	C: 1	D: -409	E: 3	F: -2	G: -2
CCN(CC)Cc1c(O)ccc2c(-c3ccccc3)cc(=O)oc12
  A: -19	B: 4	C: -3	D: -333	E: 0	F: 2	G: 1
Cc1ccc(C)c2[nH]c(=O)c(C(c3nnnn3Cc3ccco3)N3CCc4ccccc4C3)cc12 (centres undefined)
  A: -8	B: 10	C: 39	D: -141	E: 1	F: 19	G: 22
COc1ccc2[nH]c(=O)c(CN(Cc3ccco3)Cc3nnnn3Cc3ccccc3)cc2c1
  A: -8	B: 5	C: -12	D: -234	E: 5	F: 10	G: 16
O=[n+]1c2c(n([O-])c3cc(F)c(N4CCCC4)cc31)CCC2
  A: -23	B: 4	C: 0	D: -1	E: 8	F: 0	G: 21
CCc1ccccc1N1CC(C(=O)O)CC1=O (centres undefined)
  A: 2	B: 1	C: -8	D: 23	E: -4	F: 11	G: 4
O=C1NC(c2ccco2)Nc2sc3c(c21)CCN(Cc1ccccc1)C3 (centres undefined)
  A: -30	B: -10	C: -2	D: -459	E: 2	F: 19	G: 49
O=C1CCCC(O)=C1C=Nc1ccc2c(c1)oc1ccccc12
  A: -73	B: -18	C: 6	D: -407	E: -2	F: -5	G: 8
COc1ccc2nc(N3CCC(C)CC3)c(C#N)cc2c1
  A: -15	B: 11	C: 72*	D: -326	E: 13	F: -5	G: 24
Cc1nn(-c2ccccc2)c2sc(C(=O)c3c(N)n(C)c(=O)n(C)c3=O)cc12
  A: -102	B: -3	C: -2	D: -107	E: -1	F: 7	G: 11
NC(=O)C1CCN(C(=O)Nc2ccccc2)CC1
  A: 2	B: -1	C: -4	D: 11	E: 1	F: -1	G: 6
COc1ccc(C2C=C(c3ccccc3)Nc3ncnn32)cc1 (centres undefined)
  A: -23	B: 5	C: -4	D: -464	E: -5	F: 12	G: -26
COC(=O)c1ccc2c(=O)sc(N3CCC(C(N)=O)CC3)nc2c1
  A: -22	B: 6	C: 3	D: -294	E: 1	F: 10	G: 19
CCN1C(=O)c2cccc3c(NC(=O)c4ccc(S(=O)(=O)N5CCOCC5)cc4)ccc1c23
  A: 48	B: -6	C: 4	D: 17	E: 1	F: 1	G: 10
COc1ccc(OC)c(N=c2oc3cc(O)ccc3cc2C(N)=O)c1
  A: -20	B: 21	C: 18	D: -327	E: 7	F: 7	G: -23
CN1Cc2sc(N)c(C#N)c2CC1(C)C
  A: -15	B: 10	C: 11	D: -264	E: -1	F: 12	G: -3
CC(C)N1CC2=C(OC(N)=C(C#N)C2c2cccnc2)/C(=C/c2cccnc2)C1 (centres undefined)
  A: -25	B: 9	C: 3	D: -34	E: -1	F: 6	G: -6
Oc1c(Cl)cc(Cl)cc1Sc1cc(Cl)cc(Cl)c1O
  A: ·	B: 7	C: -10	D: ·	E: ·	F: -4	G: ·
COC(=O)C1=CN(C)C=C(C(=O)OC)C1c1ccc(Cl)cc1Cl
  A: -79	B: -6	C: -16	D: -179	E: -4	F: -8	G: 0
COc1ccc(CNC(=O)c2cc3c(=O)n4ccccc4nc3n(CC3CCCO3)c2=N)cc1 (centres undefined)
  A: -19	B: 7	C: 19	D: -268	E: 7	F: 15	G: -16
Nc1c(C(=O)NC2CCCC2)sc2nc(-c3cccs3)ccc12
  A: -21	B: -5	C: -5	D: -252	E: 6	F: -1	G: 8
c1ccn2c(c1)nc1c2nc2ccccn21
  A: -84	B: -9	C: -10	D: -258	E: -11	F: 7	G: 3
COC(=O)c1[nH]c2cc(C)ccc2c1NC(=O)CN1CCN(C(=O)c2ccco2)CC1
  A: 8	B: 7	C: -2	D: -277	E: 0	F: -5	G: 5
CSc1nnc2c(n1)OC(C)N(C(=O)c1ccccc1)c1ccccc1-2 (centres undefined)
  A: 30*	B: 1	C: -1	D: -46	E: -5	F: 4	G: -6
CC(=O)Oc1cc(OC(C)=O)c2c(C)cc(=O)oc2c1
  A: -111	B: -9	C: -6	D: -496	E: 2	F: 8	G: 6
N#Cc1c(N)n(CCNC(=O)c2cccs2)c2nc3ccccc3nc12
  A: -34	B: 47	C: 49	D: -422	E: 13	F: 45	G: -2
COc1ccc2c3c(cccc13)OCC2=O
  A: -14	B: 1	C: 9	D: i	E: 0	F: 0	G: -30
